NPYLR7 agonist: agonists of mosquito NPYLR7 receptor, primary screen, cell-based, Aedes aegypti, calcium fluorescence, mosquito biting behavior | HEK293T NPYLR7/Galpha15, GCaMP6s calcium fluorescence | activation, % at 10 µM | 0.15% of 270,000 active; in the data active = activation above about 40%;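 note: 0% = vehicle and 100% = reference agonist at the receptor; some compounds past the cut are filed as inactive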
NPYLR7 agonist max-min: also measured in NPYLR7 agonist; calls as there; activation, %; measured here: Max-Min RFU normalised activation; some inactives read as strong as hits;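 span of the calcium signal over five minutes; 0% = vehicle and 100% = native peptide agonist; compound fluorescence can raise it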
Starred values were filed as active, the others as inactive; & = joins results of further samples.

The opening 4 compounds, ahead of the listing:
molecule	NPYLR7 agonist	NPYLR7 agonist max-min
CCCCc1cnc2c(c1SC(C)C)c(=O)n(C)c(=O)n2C	5	10
Cn1nnc2c(Nc3ccccc3-c3ccccc3)ncnc21	7	0
CCC(=O)N1CCN(c2cc(Cl)nc(SCC(=O)NCCc3ccccc3)n2)CC1	3	2
c1ccc(CN=C2CCCc3ccccc3N2)cc1	6	1

The whole of this part, repeating the preview:
molecule	NPYLR7 agonist	NPYLR7 agonist max-min
CCCCc1cnc2c(c1SC(C)C)c(=O)n(C)c(=O)n2C	5	10
Cn1nnc2c(Nc3ccccc3-c3ccccc3)ncnc21	7	0
CCC(=O)N1CCN(c2cc(Cl)nc(SCC(=O)NCCc3ccccc3)n2)CC1	3	2
c1ccc(CN=C2CCCc3ccccc3N2)cc1	6	1
COc1ccccc1N1CCN(C(=O)c2cc(=O)c(OC)co2)CC1	7	0
COc1ccc(C2CC(c3cccs3)=NN2C(=O)CCC(=O)O)cc1OC (configuration not stated)	-5	-10
Cc1ccc(Nc2nc(N(C)C)nc3[nH]ncc23)cc1	4	0
OC1(CCc2ccccc2)CCCNC1 (configuration not stated)	-8	-7
Cn1cc(C(=O)N2CCOCC2)cc(NC(=O)c2ccc(F)c(F)c2)c1=O	-4	-11
c1ccc2ncc(CN3CCC[C@H]3c3nc(-c4ccc(-n5ccnc5)nc4)no3)cc2c1	-9	-15
Cc1ccsc1C(=O)NCc1cccnc1N1CCCC(O)C1 (configuration not stated)	21	7
Cc1c(Cl)cccc1N=Cc1nc(-c2ccccc2F)oc1O	-7	-10
O=C(NCc1ccccn1)c1cc(N2CCOCC2)nc2ccccc12	22	12
O=c1[nH]ncc(Nc2ccc(F)cc2)c1Cl	0	0
CCS(=O)(=O)NCC1CCN(Cc2nc3c(s2)CCCC3)C1 (configuration not stated)	0	-2
CC(=O)N1CCN(C(=O)COC(=O)c2ccc3ccccc3c2O)CC1	15	10
O=C(c1cscn1)N1CCCC(N2CCN(Cc3ccc4c(c3)OCO4)CC2)C1 (configuration not stated)	22	16
COc1cccc(C(C2Sc3nc(C)nn3C2=O)N2CCN(CCO)CC2)c1 (configuration not stated)	11	11
O=C(NCCc1cc(F)cc(F)c1)c1ccc(-c2cccs2)[nH]c1=O	-3	-3
COc1ccc(CCn2nnnc2C2(c3ccc(C)cc3)CC2)cc1	-5	-16
Cc1noc(-c2cccc(F)c2)c1C(=O)NCc1cccc(Cl)c1	0	2
COc1ccccc1NC(=O)N(CC(=O)Nc1cc(C(C)(C)C)nn1-c1ccc(Cl)c(Cl)c1)Cc1ccccc1	-1	1
CC(CN1CCCC1=O)Nc1cc(Cl)ccc1C#N (configuration not stated)	-16	-19
Cc1cc(OCc2cc(C(=O)N3CCCN(c4ncccn4)CC3)no2)cc(C)c1Cl	-3	-8
O=C(CCOc1ccccc1)N1CCC(n2cnc3cc(C(F)(F)F)ccc32)CC1	3	3
CCOC(=O)C1(Cc2cccc(Cl)c2)CCCN(C(=O)CCc2scnc2C)C1 (configuration not stated)	-13	-18
CCOC(=O)C1=C(CC)NC2=C(C(=O)CCC2)C1c1ccccc1I (configuration not stated)	4	1
O=C(C=Cc1cc(Br)ccc1F)N1CCN(Cc2nc3ccccc3s2)CC1	5	10
CC(C)(C)C(=O)NC(=S)NCCc1ccccc1	3	5
CC(c1ccon1)N(C)C(=O)c1cnn2c1CCCC2 (configuration not stated)	1	-4

Entries of single compounds, looked up by structure. Order of screens: NPYLR7 agonist | NPYLR7 agonist max-min
`OC1(CCc2ccccc2)CCCNC1` (configuration not stated) as listed: -8 | -7
`c1ccc(CN=C2CCCc3ccccc3N2)cc1` as listed: 6 | 1

Going on with the list:
molecule	NPYLR7 agonist	NPYLR7 agonist max-min
COc1ccccc1OCC(=O)NNC(C)=O	2	-15
COc1ccc(-c2cc(C(=O)NC3CCCCNC3=O)n3nc(-c4ccccc4)cc3n2)cc1 (configuration not stated)	10	8
Cc1ccccc1C(=O)N1C(C(=O)NCc2cccc(C(F)(F)F)c2)COC12CCN(C(=O)Cc1ccccc1)CC2 (configuration not stated)	14	24
O=C(NC1CC1)c1cc2n(n1)CCCNC2	15	4
CCCc1nc(CN(CC)C(=O)[C@@H]2CCC(=O)N2)no1	1	-1
Ic1ccc(C2=Nc3nnnn3C(c3ccccc3)C2)cc1 (configuration not stated)	0&-5	-2&-6
CC(=O)N1N=C(c2cccs2)CC1c1ccc(C)o1 (configuration not stated)	-3	-5
CO[C@H]1C(=O)N(C)C2(CCN(C(=O)COc3ccccc3)CC2)[C@@H]1C(=O)Nc1ccccc1	13	24
CCOC(=O)c1sc(NC(=O)c2ccc(S(=O)(=O)N(CC)CC)cc2)c(C(=O)OCC)c1C	-1	-5
Cc1c(C(=O)NCc2cccc(C(F)(F)F)c2)sc(=O)n1Cc1ccc(C(=O)N(C)C)cc1	-1	-3
CSc1nn(C)c2ncn(C(C)c3nc(C(C)(C)C)no3)c(=O)c12 (configuration not stated)	-5	-5
COC(=O)C1=C(O)/C(=C\c2ccc(O)c([N+](=O)[O-])c2)SC1=Nc1ccccc1F	-6	-6
CCCC(=O)OCC(O)CN(CCc1nc(-c2ccccc2)no1)Cc1ccco1 (configuration not stated)	12	11
Cc1ncc(CN2CCCC2C(=O)Nc2ccc(-c3cccc(F)c3)cc2)cn1 (configuration not stated)	19	9
COc1ccc2nc(N=Cc3nc(-c4cc(OC)c(OC)c(OC)c4)oc3O)sc2c1	-1	-2
CCc1nc(CN2CCc3[nH]cnc3C2c2ccc(NC(C)=O)cc2)c(C)[nH]1 (configuration not stated)	7	0
COc1ccccc1C1(CNc2ccc(C(=O)N(C)C)cn2)CC1	4	2
CCOC(=O)Nc1cccc(-c2nncn2C)c1	-3	-2
CCCNC(=O)Cn1nc(C2CC2)c2cnn(-c3ccc(C)c(C)c3)c2c1=O	-3	-1
CC(C)C(NC(=O)c1ccc(Cl)cc1)C(=O)NCCc1ncn(C)n1 (configuration not stated)	5	2
CSc1ccccc1CN1CCC(CCc2ccc(C(F)(F)F)cc2)CC1	1	8
CC(C)(C)c1cc(CN2CCN(c3nc4ccccc4o3)CC2)[nH]n1	6	2
O=C1NCCN2CCN(C(=O)CN3CCCCC3=O)CC12 (configuration not stated)	6	5
Cc1cc(C(C)NC(=O)N2CCC(C(O)c3ccccc3)CC2)c(C)o1 (configuration not stated)	6	5
CCCNC(=O)Cn1cnc2c(nnn2-c2cc(C)cc(C)c2)c1=O	-4	-9
COc1cc(N2C[C@@H]3[C@@H]4CC[C@@H](C4)[C@@H]3C2)nc(N)n1	7	3
Cc1ccc(/C=C/c2nc(SCCO)n[nH]2)o1	0	-1
Cc1nc(SCc2ccc(C(=O)NCC3CCCO3)cc2)nc(N2CCN(c3ccccc3F)CC2)c1C (configuration not stated)	6	15
Cc1cc(C)c(S(=O)(=O)N(CC(=O)N(Cc2ccccc2)Cc2sccc2C)C2CCCCC2)c(C)c1	4	8
Cc1noc(C)c1S(=O)(=O)NC(C)c1ccccc1Br (configuration not stated)	7	5
CC(CC(=O)c1ccccc1F)C(=O)N(C)C1CCN(C)C1=O (configuration not stated)	7	6
O=C(Nc1nccs1)Nc1c[nH]c2ccccc12	-2	-5
CCC1CCCCN1c1nc(-c2ccc(Oc3ccccc3)cc2)nc2ccccc12 (configuration not stated)	-1	-1
Nc1ccc(N2CCC(Cc3ccccc3)CC2)c(C(=O)N2CCCC2)c1	16	14
O=C(O)c1ccccc1NC(=O)c1cc2cc(Br)ccc2oc1=O	1	-2
O=C(CN1CCN(c2ncc(C(F)(F)F)cc2Cl)CC1)Nc1ccnn1C1CCCC1	3	0
Cc1ccc(CN(C)CN2C(=O)NC3(CCCCC3)C2=O)cc1	19	11
CN1CC2(CCCN(C(=O)CCN3Cc4ccccc4C3)C2)OC1=O (configuration not stated)	4	0
Cc1ccc(C(=O)N2CCN(c3ccc(-n4cccn4)nn3)CC2)cc1C	9	7
COc1cccc(-c2ncc(CNC(=O)c3cn[nH]n3)s2)c1	-4	-8
Cc1ccccc1OCCN1C(=O)NC2(CCCc3sccc32)C1=O (configuration not stated)	7	7
NC1CCN(c2c(F)cc3c(=O)c(C(=O)O)cn(C4CC4)c3c2Cl)C1 (configuration not stated)	2	3
Cc1cccc(C)c1Nc1c(CCc2ccccc2)nc2ncccn12	-1	2
COc1cccc(CN(C)C(=O)c2sc(=O)n(Cc3ccccc3F)c2C)c1	11	4
COCCCNc1nc2nonc2nc1N1CCN(Cc2cccc(F)c2)CC1	7	8
CN(Cc1csc(C23CC4CC(CC(C4)C2)C3)n1)[C@@H]1CS(=O)(=O)C[C@H]1O	12	8
CCC(C(=O)N1CCN(c2nc(C)nc(C)c2Cc2ccc(F)cc2)CC1)c1ccccc1 (configuration not stated)	2	6
CC(C)(C)OC(=O)CSc1nc2ccccc2c(=O)n1C1CCCC1	-5	17
COc1ccc(C2=NN(C(=O)CN3CCN(c4ccccc4F)CC3)C(c3ccccc3Cl)C2)c(OC)c1 (configuration not stated)	0	7
O=C(NCCNC(=O)C1CCN(C(=O)c2cc(C(F)(F)F)cc(C(F)(F)F)c2)CC1)c1ccccc1	-2	6
Cc1c(C)n2c3c(=O)n(CCCc4ccccc4)c(=O)n(C)c3nc2n1CCN1CCOCC1	2	1
CCCN(CC(=O)N(CCc1c[nH]c2ccccc12)Cc1ccc(OC)cc1)C(=O)Nc1cccc(F)c1	-1	-8
O=c1c(-c2cccc3ccccc23)[n+]([O-])c2ccccc2n1O	0	-7
c1cnn(-c2ccc(-c3ccc(CN4CCNCC4)cc3)cc2)c1	5	4
COc1cccc(CN(Cc2nc(C(=O)N3CCCC3)co2)C2CC2)c1	-1	6
COc1cccc(NC(=O)CSc2nc(=O)n3cc(Cl)ccc3n2)c1	8	3
CC(C)(C)OC(=O)N/N=C\c1ccccc1OCC#N	1	3
COc1ccc2[nH]c3c(c2c1)CCN(C(=O)c1c(F)cc(F)cc1F)C3c1ccccc1OC (configuration not stated)	20	5
O=C(OCc1ccccc1Oc1cccnc1)C1(O)CCCCC1	14	10
CC1CC(CC(=O)NC(C(N)=O)C(C)C)CC(C)(C)C1 (configuration not stated)	0	1

(continued)
molecule	NPYLR7 agonist	NPYLR7 agonist max-min
O=C(CNS(=O)(=O)c1cccs1)N1CCC1c1ccc(F)cc1 (configuration not stated)	2	9
CC(C)CNC(=O)Cc1csc(Nc2ccc(OC(F)(F)F)cc2)n1	8	0
COc1ccccc1OCCSc1nc2ncnc(N)c2[nH]1	-9	-12
O=C(O)Cc1ccc2ccccc2c1Br	-24	-24
CCCCCC(=O)N1CC(=O)N2CC(C)c3ccccc3C2C1 (configuration not stated)	3	2
CN1CCN(C(=O)CCC2CCCN(Cc3ccccc3-c3ccco3)C2)CC1 (configuration not stated)	6	3
COc1ccc(Nc2nc(N3CCN(c4ccccc4OC)CC3)nc3nccnc23)cc1	-2	7
Cc1[nH]cnc1CN1CCCN(C(=O)c2ccco2)CC1	6	1
CO[C@H]1CN(CC2CC2)[C@H]2Cc3c(n(CCO)c4ccccc34)[C@@H]1C2	33	31
Cc1ccc(-n2c(SCC(=O)NC(C)C(C)C)nc3ccccc3c2=O)nc1 (configuration not stated)	20	9
COc1cc(C)c(C(C)C)cc1S(=O)(=O)NCc1ccco1	6	2
CCOC(=O)C1CCN(C(c2ccc([N+](=O)[O-])cc2)C2Sc3nc(CC)nn3C2=O)CC1 (configuration not stated)	-1	8
C=CCc1cccc2cc(C(=O)N3CCN(C(=O)c4ccccc4)CC3)c(=O)oc12	3	2
COc1cc(CN2CCCn3cccc3C2c2ccoc2)ccc1O (configuration not stated)	1	12
O=C(NCCc1ccccn1)c1ccc(SCc2ccccc2)nc1	-12	-14
Cc1cc(-c2nnc(NC(=O)c3nc4ccccc4s3)o2)n(C)n1	-6	0
Cc1nn(CNC2(c3ccc(F)cc3)CCCC2)c(=S)n1Cc1ccccc1	3	1
Cc1cc(C(C)C)n2c(nc3ccccc32)c1C#N	-8	-11
NC(=O)CSc1nc(-c2ccccc2)c(NC(=O)CCC2CCCC2)s1	-2	-6
CCOc1ccc(-c2ccnc(-c3ccccc3F)n2)cc1C(=O)O	2	1
CN(C)CCCN(C(=O)CN1C(=O)c2ccccc2C1=O)c1nc2c(Cl)cccc2s1	8	5
CCN(C(=O)c1ccc(OCc2csc(C)n2)c(OC)c1)C1CCCCC1	-4	-5
Cc1ccc(C(O)=C2C(=O)C(=O)N(c3nncs3)C2c2ccc(C(C)(C)C)cc2)cc1 (configuration not stated)	4	75
O=C(O)CCn1ccc2c(nnc3c(-c4ccccc4)cnn32)c1=O	17	10
CN(C(=O)c1ccc2[nH]c(=O)[nH]c2c1)C1Cc2ccccc2C1	15	6
COc1cccc(CN2CCC(C(=O)NC(c3ccc4ccccc4n3)c3cccs3)CC2)c1 (configuration not stated)	2	4
O=C(NCc1cccc(-c2ncc(-c3ccc(F)cc3)[nH]2)c1)c1ccc(F)c(C(F)(F)F)c1	30	28
CC(C)(C)CC(C)(C)Nc1c(-c2ccc(Cl)cc2)nc2ccccn12	-4	3

Screening data deposited in PubChem BioAssay by Fisher Drug Discovery Resource Center.

The list is partial; rates above refer to the full screens.
